# Screening data (PubChem)
# MLL AF4-AF9 inh – inhibitors of human MLL-AF4/AF9 interaction | inhibition, % at 10 µM | AlphaScreen, biotin-AF4 peptide binding to FLAG-AF9 | P42568 | 350,000 tested, 0.47% active | AID 651704;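 active means every replicate reaching a set inhibition limit, whatever the replicate mean, cut at about 25% in these data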;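 further: 0% = plate neutral control median and 100% = total signal loss; the record names both 10 and 1 µM as test concentration; the first replicate is given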
# Target sequence (P42568 whole entry, looked up): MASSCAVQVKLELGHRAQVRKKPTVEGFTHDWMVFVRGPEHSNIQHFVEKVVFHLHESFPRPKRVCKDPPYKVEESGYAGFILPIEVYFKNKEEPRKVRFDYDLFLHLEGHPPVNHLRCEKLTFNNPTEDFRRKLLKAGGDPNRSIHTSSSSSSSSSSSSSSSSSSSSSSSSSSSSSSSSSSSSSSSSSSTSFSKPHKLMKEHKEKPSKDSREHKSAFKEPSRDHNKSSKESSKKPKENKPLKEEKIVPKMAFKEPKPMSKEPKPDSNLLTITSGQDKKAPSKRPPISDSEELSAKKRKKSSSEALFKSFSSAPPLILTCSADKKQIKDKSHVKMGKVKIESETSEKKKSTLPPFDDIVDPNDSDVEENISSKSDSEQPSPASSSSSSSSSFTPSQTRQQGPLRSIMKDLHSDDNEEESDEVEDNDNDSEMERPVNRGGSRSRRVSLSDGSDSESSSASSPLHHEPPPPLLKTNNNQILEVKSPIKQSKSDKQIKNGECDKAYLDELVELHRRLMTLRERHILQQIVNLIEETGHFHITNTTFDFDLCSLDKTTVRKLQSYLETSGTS
# Numbers without * were called inactive; & = joins results of further samples. Not all compounds are listed; rates above refer to the full screens.
SMILES,MLL AF4-AF9 inh
C[C@H](CO)N1C[C@H](C)[C@@H](CN(C)Cc2ccccc2)OCCCC[C@H](C)Oc2ccc(NC(=O)C3CCCCC3)cc2C1=O,0.2
O=C(CN1CCOCC1)NCC[C@H]1CC[C@@H](NC(=O)Nc2ccc(F)cc2)[C@H](CO)O1,-0.3
C/C=C/C=C/C(=O)c1cc(C)c(OC(=O)CNC(=O)OC(C)(C)C)c(C)c1O,0.8
C[C@H](CO)N1C[C@H](C)[C@H](CN(C)S(=O)(=O)c2cn(C)cn2)Oc2c(NC(=O)Nc3ccc4c(c3)OCO4)cccc2C1=O,-1.1
OC[C@@H]1[C@@H](c2ccccc2)C2(CN(Cc3ccccn3)C2)N1Cc1cncnc1,1.0
COc1cccc(NC(=O)C2(C)CCN2Cc2ccc(-c3ccccc3)o2)c1 (centres undefined),-4.0
O=C(N[C@H]1C=C[C@H](CC(=O)N2CCc3ccccc3C2)O[C@H]1CO)C1CCOCC1,-3.6
C[C@@H]1CN([C@@H](C)CO)S(=O)(=O)c2ccc(-c3ccccc3)cc2O[C@@H]1CN(C)Cc1cccc(F)c1,3.0
O=C(N[C@@H]1CC[C@H](CCNS(=O)(=O)c2ccc(F)cc2)O[C@@H]1CO)C1CCOCC1,0.2
O=C(c1cnccn1)N1CC(=O)N2[C@@H](CO)[C@H](c3ccc(-c4ccc(F)cc4)cc3)[C@@H]2C1,-1.4
C[C@@H]1CN([C@@H](C)CO)C(=O)Cc2cc(NS(=O)(=O)c3ccccc3)ccc2O[C@H]1CN(C)S(=O)(=O)c1cccs1,1.6
CS(=O)(=O)c1cc(N2CCOCC2)ccc1CNC[C@H]1O[C@@H](n2cnc3c(=O)[nH]c(N)nc32)[C@H](O)[C@@H]1O,4.1
COc1cccc(C#Cc2cnc3c(c2)C(=O)N([C@H](C)CO)C[C@H](C)[C@H](CN(C)C(=O)C2CCOCC2)O3)c1,-2.1
Cc1noc(C)c1S(=O)(=O)Nc1ccc2c(c1)C(=O)N([C@H](C)CO)C[C@H](C)[C@@H](CN(C)C)OCCCC[C@@H](C)O2,-4.1
C[C@H]1CN([C@@H](C)CO)C(=O)c2cc(N(C)C)ccc2O[C@@H]1CN(C)Cc1ccc(Oc2ccccc2)cc1,40*
O=C(C[C@H]1CC[C@H](NS(=O)(=O)c2ccc(F)cc2)[C@@H](CO)O1)NCc1ccncn1,-0.8
O=C(Cc1ccccn1)N[C@H]1CC[C@H](CCn2cc(-c3ccccc3)nn2)O[C@H]1CO,0.2
COc1ccc(-c2cnc3c(c2)C(=O)N([C@@H](C)CO)C[C@@H](C)[C@H](CN(C)C(=O)NC2CCCC2)O3)cc1,-2.7
Cc1cc2c(SCC(=O)Nc3cccc(O)c3)ncnc2s1,-0.4
COCCNC(=O)C[C@@H]1C[C@@H]2c3cc(NC(=O)Nc4ccccc4)ccc3O[C@@H]2[C@H](CO)O1,-0.9
C[C@@H]1CN([C@H](C)CO)C(=O)Cc2cc(NC(=O)CCN3CCOCC3)ccc2O[C@H]1CN(C)Cc1ccc(C(F)(F)F)cc1,2.5
CC[C@@H]1CCC[C@@H](O)[C@@H](C)C(=O)O[C@H](C)[C@@H](C)C/C=C(C)/C(OC)=C\C(=O)N(C)C([C@@H](C)CC)C(=O)N(C)[C@@H](C(C)C)C(=O)N(C)[C@@H](COC)C(=O)N2CCC[C@H]2C(=O)N(C)[C@@H](C(C)C)C(=O)N2CCC[C@H]2C(=O)O1 (some centres undefined),5.7
CO[C@@H]1CN(C)C(=O)c2cc(NS(=O)(=O)c3ccccc3Cl)ccc2OC[C@@H](C)NC[C@@H]1C,-3.9
C=CC[C@@]1(C(=O)NCC(O)CO)N=C(c2ccc(OCCCO)cc2)O[C@@H]1c1ccccc1 (some centres undefined),-3.9
CC(=O)Nc1ccc2c(c1)C(=O)N(C)[C@@H]1CC[C@@H](CC(=O)NCc3ccccc3Cl)O[C@@H]1CO2,0.0
Cc1noc(C)c1S(=O)(=O)Nc1ccc2c(c1)C(=O)N([C@@H](C)CO)C[C@@H](C)[C@@H](CN(C)Cc1ccccc1)OCCCC[C@@H](C)O2,4.1
O=C(Nc1ccc2c(c1)[C@@H]1C[C@H](CC(=O)N3CCCCC3)O[C@H](CO)[C@@H]1O2)C1CCC1,-0.6
CN(C)c1ccc2c(c1)[C@H]1C[C@@H](CC(=O)NCc3ccccc3)O[C@@H](CO)[C@H]1O2,-0.6
CC(=O)N(C)C[C@@H]1Oc2cc(C#C[C@@H](C)O)ccc2S(=O)(=O)N([C@@H](C)CO)C[C@@H]1C,0.1
O=C(CN1CCOCC1)N1CCCCN2[C@H](C1)[C@@H](c1ccc(-c3ccccc3F)cc1)[C@@H]2CO,0.6
CO[C@H]1CC[C@H]2CCN(C)C(=O)C[C@@H](c3ccccc3)CN(C)C(=O)c3cc(C#N)ccc3OC[C@H]1O2,0.2
CCCNC(=O)C1(C)CCCN(Cc2cccc(C(F)(F)F)c2)C1 (centres undefined),-1.9
C[C@H]1CN([C@@H](C)CO)C(=O)c2cc(NC(=O)Nc3ccc(F)cc3)ccc2O[C@H]1CN(C)S(=O)(=O)c1ccc(F)cc1,0.9
CC=Cc1ccc2n(c1=O)C[C@H]1[C@H](CO)[C@@H](C(=O)NCCC)N(CC3CCCC3)[C@@H]21 (mixture of isomers),3.8
CCN1[C@@H]2c3ccc(/C=C/c4ccccc4)c(=O)n3C[C@H]1[C@H](CO)[C@H]2C(=O)NCc1ccccn1,-3.9
CC(=O)N(C)C[C@@H]1[C@@H](c2ccc(-c3ccc(F)cc3)cc2)[C@H](CO)N1C(C)=O,-11
O=C(C[C@H]1CC[C@H]2[C@@H](COC[C@H](O)CN2Cc2ccccc2)O1)NCCCN1CCOCC1,-0.9&-0.1
Cc1cccc(S(=O)(=O)N2C[C@H](O)COC[C@@H]3O[C@@H](CC(=O)NCCCN4CCOCC4)CC[C@H]32)c1,-1.2
CCCC(=O)Nc1ccc2c(c1)C(=O)N(C)C[C@@H](OC)[C@@H](C)CN(CC1CCCC1)[C@H](C)CO2,-2.6
C[C@@H]1CCCCO[C@@H](CN(C)C(=O)CCC(F)(F)F)[C@@H](C)CN([C@@H](C)CO)C(=O)c2cc(NS(=O)(=O)c3ccccc3)ccc2O1,-1.4

# 3 compounds from above, ordered by the value under MLL AF4-AF9 inh, lowest first.
SMILES,MLL AF4-AF9 inh
CCCNC(=O)C1(C)CCCN(Cc2cccc(C(F)(F)F)c2)C1 (centres undefined),-1.9
OC[C@@H]1[C@@H](c2ccccc2)C2(CN(Cc3ccccn3)C2)N1Cc1cncnc1,1.0
C[C@@H]1CN([C@@H](C)CO)S(=O)(=O)c2ccc(-c3ccccc3)cc2O[C@@H]1CN(C)Cc1cccc(F)c1,3.0

# Going on with the list:
SMILES,MLL AF4-AF9 inh
C[C@H]1CN([C@@H](C)CO)C(=O)c2cccc(NC(=O)Nc3cccc4ccccc34)c2O[C@@H]1CN(C)C(=O)Nc1ccc(C(F)(F)F)cc1,8.2
COc1ccc(C#Cc2ccc([C@H]3[C@H](CO)N4CCCCN(C(=O)c5ccncc5)C[C@@H]34)cc2)cc1,4.6
C[C@H](NC(=O)[C@H]1[C@H](CO)[C@H]2Cn3c(ccc(-c4cccnc4)c3=O)[C@@H]1N2C)c1ccccc1,0.1
O=C(c1ccc2c(c1)OCO2)N1CC(=O)N2[C@@H](CO)[C@H](c3ccc(C#Cc4ccccc4)cc3)[C@@H]2C1,9.9
CO[C@H]1CN(C)C(=O)c2cc(NC(C)=O)ccc2OC[C@H](C)N(S(C)(=O)=O)C[C@H]1C,-5.8
C/C=C/c1cccc(-c2nc(C(=O)NC3CCC3)cc3c2[C@@H](CCO)N(S(=O)C(C)(C)C)C3)c1 (some centres undefined),4.2
CC(=O)C1=CCC(c2ccc(C)cc2)N(S(=O)(=O)c2ccc(Cl)cc2)C1 (centres undefined),-2.2
COc1cccc(S(=O)(=O)N[C@@H]2CC[C@H](CCn3cc(-c4ccccc4OC)nn3)O[C@H]2CO)c1,1.1
Cc1ccc(S(=O)(=O)N[C@@H]2CC[C@H](CC(=O)N3CCN(c4ccccc4)CC3)O[C@@H]2CO)cc1,2.5
O=C1c2ccccc2C(c2nnnn2-c2ccc3c(c2)OCCO3)N1CCOc1ccccc1 (centres undefined),0.9
C[C@@H]1CN([C@H](C)CO)S(=O)(=O)c2ccc(C#CC(C)(C)O)cc2O[C@H]1CN(C)Cc1ccccc1,2.0
COc1cccc(NC(=O)Nc2ccc3c(c2)C(=O)N(C)C[C@H](OC)[C@H](C)CN(C)[C@@H](C)CO3)c1,14
COc1ccc(NC(=O)N(C)C[C@@H]2OCCCC[C@H](C)Oc3ccc(NC(=O)Cc4ccccc4)cc3C(=O)N([C@@H](C)CO)C[C@@H]2C)cc1,-4.1
CC(=O)ON=C1C=CC(=C(C#N)c2ccccc2)C=C1,8.9
CN(C)CC#Cc1ccc([C@H]2[C@H]3CN(C(=O)c4ccc5c(c4)OCO5)CCCCN3[C@H]2CO)cc1,1.7
CO[C@@H]1CN(C)C(=O)c2cc(NC(=O)Cc3ccccc3)ccc2OC[C@H](C)N(C(=O)c2ccccc2F)C[C@@H]1C,-0.5
Fc1ccc(-c2nc3ccc(Cl)cn3c2Cc2cccc(Cl)c2)cc1,5.2
C[C@H]1CN([C@@H](C)CO)S(=O)(=O)c2ccc(C3=CCCC3)cc2O[C@H]1CN(C)C(=O)c1ccncc1,-4.3
CCN1/C(=C/c2ccc3cc(C)cc(C)c3[n+]2CC)Sc2cc(C)ccc21,28*
O=C(C[C@@H]1CC[C@@H]2[C@H](COC[C@@H](O)CN2C(=O)Cc2ccccc2)O1)NC1CCC1,-1.0
CSc1c2c([nH]c(=O)c1C#N)-c1ccccc1CC2,-8.1
CC(C)CC#Cc1ccc2c(c1)O[C@H](CN(C)C(=O)C1CCC1)[C@H](C)CN([C@H](C)CO)S2(=O)=O,2.2
C[C@@H]1CN([C@@H](C)CO)C(=O)c2cc(NC(=O)CCN3CCOCC3)ccc2O[C@@H]1CN(C)Cc1ccc2c(c1)OCO2,-11
CCN1C[C@@H]2[C@@H]3C(=O)N(Cc4ccccc4)C(=O)[C@@H]3[C@](C)(C1=O)N2C(=O)c1ccc(C)cc1,2.8
CC1Oc2ccc(C#N)cc2N(Cc2cccc(F)c2)C1=O (centres undefined),0.6
O=C(Nc1ccc2c(c1)OCCO2)C(c1cc2ccccc2o1)N1CCN(c2ccc(C(F)(F)F)cn2)CC1 (centres undefined),-2.5
CCCNC(=O)[C@H]1[C@H](CO)[C@H]2Cn3c(ccc(C4=CCCC4)c3=O)[C@@H]1N2C(=O)CC,-5.5
O=C(C[C@H]1CC[C@H]2[C@@H](COC[C@@H](O)CN2Cc2ccc(Cl)cc2)O1)NCc1ccccc1Cl,1.5
C[C@H]1CN([C@@H](C)CO)C(=O)c2cc(C#Cc3cccnc3)cnc2O[C@@H]1CN(C)Cc1ccccc1,-0.8
CCN(CC)C(=O)[C@H]1C[C@@H]2[C@H](C[C@@H](c3ccccc3)[C@H]1C)N(c1ccc(F)cc1)C(=O)N2C/C=C(\C)CCC=C(C)C,-3.0
C[C@H](CO)N1C[C@H](C)[C@@H](CN(C)Cc2ccc(Oc3ccccc3)cc2)Oc2ccc(NS(=O)(=O)c3cccs3)cc2C1=O,5.4
CNC[C@H]1OCCCC[C@@H](C)Oc2ccc(NC(=O)c3ccncc3)cc2C(=O)N([C@@H](C)CO)C[C@H]1C,-7.0
C[C@@H]1CN([C@H](C)CO)S(=O)(=O)c2ccc(/C=C/c3ccccc3)cc2O[C@@H]1CN(C)C(=O)NC1CCCC1,5.5
CN(C)C(=O)c1ccc(-c2cccc(-c3nc(C(=O)NCc4ccccc4)cc4c3[C@H](CCO)N([S@@](=O)C(C)(C)C)C4)c2)cc1,4.4
C[C@@H]1CN([C@H](C)CO)C(=O)c2cc(NC(=O)C3CCCCC3)ccc2O[C@@H](C)CCCCO[C@H]1CN(C)C(=O)Nc1ccc(C(F)(F)F)cc1,-1.3
CC=Cc1ccc2n(c1=O)C[C@H]1[C@H](CO)[C@@H](C(=O)Nc3nccs3)N(Cc3cc(F)ccc3F)[C@@H]21 (mixture of isomers),-0.1
CNC[C@H]1Oc2c(NC(=O)C3CCCCC3)cccc2C(=O)N([C@@H](C)CO)C[C@H]1C,0.7
CN(Cc1ccc(Cl)c(Cl)c1)C(C(=O)NCc1ccccc1)c1ccc(C(F)(F)F)cc1 (centres undefined),-8.3
CN(C)CC(=O)N1[C@H](C(=O)NCc2ccccc2F)[C@@H](CO)[C@@H]2Cn3c(cccc3=O)[C@@H]21,-2.4
CC(C)NC(=O)N(C)C[C@H]1Oc2ccc(NS(=O)(=O)c3ccc(Cl)cc3)cc2C(=O)N([C@H](C)CO)C[C@H]1C,0.0
C[C@@H]1CN([C@H](C)CO)C(=O)CCCn2cc(nn2)CO[C@@H]1CN(C)CC1CCCCC1,-3.1
COc1ccc(S(=O)(=O)N2[C@@H]3CNC[C@H]2C3c2ccc(-c3ccccc3F)cc2)cc1 (some centres undefined),-2.5

# Among those listed so far, these contain an aryl methoxy group.
SMILES,MLL AF4-AF9 inh
COc1cccc(NC(=O)C2(C)CCN2Cc2ccc(-c3ccccc3)o2)c1 (centres undefined),-4.0
COc1cccc(C#Cc2cnc3c(c2)C(=O)N([C@H](C)CO)C[C@H](C)[C@H](CN(C)C(=O)C2CCOCC2)O3)c1,-2.1
COc1ccc(-c2cnc3c(c2)C(=O)N([C@@H](C)CO)C[C@@H](C)[C@H](CN(C)C(=O)NC2CCCC2)O3)cc1,-2.7
COc1ccc(C#Cc2ccc([C@H]3[C@H](CO)N4CCCCN(C(=O)c5ccncc5)C[C@@H]34)cc2)cc1,4.6
COc1cccc(S(=O)(=O)N[C@@H]2CC[C@H](CCn3cc(-c4ccccc4OC)nn3)O[C@H]2CO)c1,1.1
COc1cccc(NC(=O)Nc2ccc3c(c2)C(=O)N(C)C[C@H](OC)[C@H](C)CN(C)[C@@H](C)CO3)c1,14
COc1ccc(NC(=O)N(C)C[C@@H]2OCCCC[C@H](C)Oc3ccc(NC(=O)Cc4ccccc4)cc3C(=O)N([C@@H](C)CO)C[C@@H]2C)cc1,-4.1
COc1ccc(S(=O)(=O)N2[C@@H]3CNC[C@H]2C3c2ccc(-c3ccccc3F)cc2)cc1 (some centres undefined),-2.5
